Screening data: PubChem, several laboratories
CBX7 inh = CBX7 inhibition, primary AlphaScreen; normalised signal (fraction of DMSO) (concentration not given with the values); actives 1.1% (n = 66,000); O95931; AlphaScreen His6-CBX7 / biotin-H3K27me3 peptide binding; hits give low values; in the data active means normalised signal below about 0.5;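 further: 100 nL library stock added to about 20 µL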
Target sequence (O95931 whole entry, looked up): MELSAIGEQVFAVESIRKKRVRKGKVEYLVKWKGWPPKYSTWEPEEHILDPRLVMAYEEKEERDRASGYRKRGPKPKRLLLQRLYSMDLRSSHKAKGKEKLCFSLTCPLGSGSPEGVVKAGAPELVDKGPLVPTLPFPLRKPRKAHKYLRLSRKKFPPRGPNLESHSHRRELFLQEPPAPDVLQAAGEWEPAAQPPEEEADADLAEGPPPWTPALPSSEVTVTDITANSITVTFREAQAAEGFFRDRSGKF
CBX7 inh z-score = second read-out of CBX7 inh, no call of its own (marks repeat the call); z-score; measured here: z-score of CBX7 signal; some inactives read as strong as hits; reference of the scale not given here;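 same signal on another scale; lower means less binding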
An asterisk follows results filed as active; & = joins results of further samples.

SMILES	CBX7 inh	CBX7 inh z-score
CCOC(=O)Cc1cc(=O)n(-c2nc3ccccc3s2)[nH]1	1.1	0.9
O=C(CSc1nc2ccccc2[nH]1)Nc1cccc(C(=O)O)c1	0.99	-0.12
O=C(NCCCN1CCOCC1)C1CCC(=O)N1CCc1ccccc1 (configuration not stated)	1	0.035
COCCNC(=O)c1nc(-c2ccc(C)cc2)oc1C	0.98	-0.76
CCOC(=O)N1CCN(c2c(NCCCN(C)c3ccccc3)c(=O)c2=O)CC1	0.99	-0.18
Cn1c2ccccc2c2c(C(=O)N3CCN(c4ccccc4F)CC3)cn(C3CCCC3)c(=O)c21	0.78	-0.22
Clc1ccc(Cn2c(CNc3ccccc3)nc3ccccc32)cc1	0.94	-2.1
Cc1ccc(S(=O)(=O)C2(C(=O)Nc3cccc(Cl)c3)CC2)cc1	1.2	3.2
CCCCCn1c(=O)[nH]c2cc(C(=O)NCCCN3CCC(C)CC3)ccc2c1=O	1.1	1.2
COC(=O)c1cnn2c(C)c(Cc3ccccc3C)c(C)nc12	1	-0.029
Cc1nc2c(-c3ccccc3)c(C)nn2c(C)c1CCC(=O)NCC1CCN(C2CCCC2)C1 (configuration not stated)	1.2	2.2
O=C(Nc1cccc(-c2nc3ccccc3o2)c1)c1cccc(OCc2ccccc2)c1	1.2	4.1
Cc1cc(OCc2cn3cccnc3n2)ccc1Cl	1.1	0.84
COc1ccc(CN2C(=O)N(c3ccccc3)C(=O)C2CC(=O)Nc2ccc(Cl)cc2)cc1 (configuration not stated)	1	0.29
Cc1ccccc1-c1nc(C(=O)NCCC(C)C)c(C)o1	1.1	0.83
CCOC(CNC(=O)c1cnn2c(C)c(Cc3ccccc3Br)c(C)nc12)OCC	0.95	-0.5
CCN(CC)c1ccc(NC(=O)C2(S(=O)(=O)c3ccc(Cl)cc3)CC2)c(C)c1	0.69	-4
CC(C)CN(CC(C)C)c1nnc(NC(=O)c2csc3c2CCCC3)s1	1.1	0.61
O=S(=O)(Nc1ccc(-c2csc(-c3ccccc3)n2)cc1)c1ccc(Cl)cc1	0.62	-1.1
Cc1cccc(N2C(=O)CC(N3CCN(C(c4ccccc4)c4ccccc4)CC3)C2=O)c1 (configuration not stated)	0.87	-2.1
O=C(Nc1nnc(-c2ccc(F)cc2)s1)c1ccc(Cl)cc1	1	0.75
CCCCc1nc(NCc2ccccc2)c(C#N)c2c1CCCC2	1.2	5
Cc1ccc(-c2nc3c(C)cccn3c2Nc2ccc3c(c2)OCCO3)cc1	0.63	-14
CCCCCn1c(CNC(=O)CCC)nc2ccccc21	1.2	1.7
O=C(Nc1ccccc1)N(Cc1cccnc1)Cc1ccccc1Cl	0.87	-0.13

(continued)
SMILES	CBX7 inh	CBX7 inh z-score
CCN(CC)CCCNC(=O)c1ccc2c(c1)NC(=O)CS2	0.9	-1
COc1ccc(CNC(=O)c2ccc3c(c2)N(Cc2ccc(Cl)cc2)CCS3)cc1	0.87	-1.6
Fc1cccc(Nc2nc(-c3ccccc3F)nc3ccccc23)c1	1.1	1.2
COc1ccc2nc(Nc3nccc(C)n3)nc(C)c2c1	1	0.64
O=C(CN1C(=O)CSc2ccc(S(=O)(=O)N3CCCC3)cc21)NCCCN1CCCCCC1	0.99	-0.32
Cc1ccc(C(=O)Nc2c3c(nn2-c2ccc(Oc4ccccc4)cc2)CSC3)cc1	0.83	-3.1
CC(=O)Nc1ccc(Nc2nc(-c3sc(NC(=O)c4ccccc4)nc3C)cs2)cc1	1	0.035
CCN(CC)CCCNC(=O)COc1ccc2c(c1)C(=O)CC(C)(C)O2	1	0.19
Cc1c(NC(=O)c2ccccc2F)cccc1-c1nc2ncccc2o1	1.1	0.086
Cc1cc(NCCc2ccccc2)n2nc(C)nc2n1	1	0.81
Cc1ccc(NC(=O)c2ccccc2NC(=O)c2cccc(S(=O)(=O)N3CCOCC3)c2)c(C)c1	0.99	-0.083
Cc1ccc2c(c1)NC(=O)C(CC(=O)Nc1ccc(F)cc1C)O2 (configuration not stated)	1.1	2.7
Cc1ccc2cc(CCNC(=O)c3cc4ccccc4o3)c(=O)[nH]c2c1C	1	0.31
COc1ccccc1Nc1nc(-c2ccccc2O)nc2ccccc12	1	0.0018
Fc1ccc(CSc2nnc(-c3ccc(Cl)cc3Cl)o2)cc1	1.1	1.8
Cc1ccc(NC(=O)Nc2ccc3snnc3c2)cc1C	1.1	2.2
COc1ccc(-c2csc(NC(=O)c3ccc(Cc4ccccc4)cc3)n2)cc1	0.95	-0.9
O=C(NCc1c(F)cc(F)cc1F)c1ccc2c(c1)N(Cc1ccc(F)cc1)C(=O)CS2	0.98	-0.19
CCOc1ccc(OCC)c(NS(=O)(=O)c2ccc3[nH]c(=O)c(=O)[nH]c3c2)c1	1	0.3
Cc1ccc(Nc2nc3ccccc3nc2NS(=O)(=O)c2ccccc2)c(C)c1	1	0.44
CCOC(=O)c1sc2nc(C)nc(Nc3cccc(C)c3)c2c1C	1.2	8.8
CCN(CC)c1nc(-c2ccccc2Cl)nc2ccccc12	1.1	3.3
Cc1ccc(NC(=O)CN(C)S(=O)(=O)c2cccc3cccnc23)cc1	1	-0.074
Cc1ccc(CNC(=O)c2cccc(NC3=NC4CS(=O)(=O)CC4S3)c2)cc1 (configuration not stated)	0.82	-1.9
O=C(Cc1ccc(-n2c(=O)[nH]c3ccsc3c2=O)cc1)N1CCN(c2ccccc2)CC1	1.1	0.47

6 of these compounds in a different format:
Below each SMILES: CBX7 inh	CBX7 inh z-score
- Cc1ccc(NC(=O)c2ccccc2NC(=O)c2cccc(S(=O)(=O)N3CCOCC3)c2)c(C)c1
    0.99	-0.083
- Cc1ccc2c(c1)NC(=O)C(CC(=O)Nc1ccc(F)cc1C)O2 (configuration not stated)
    1.1	2.7
- Cc1ccc2cc(CCNC(=O)c3cc4ccccc4o3)c(=O)[nH]c2c1C
    1	0.31
- COc1ccccc1Nc1nc(-c2ccccc2O)nc2ccccc12
    1	0.0018
- Fc1ccc(CSc2nnc(-c3ccc(Cl)cc3Cl)o2)cc1
    1.1	1.8
- Cc1ccc(NC(=O)Nc2ccc3snnc3c2)cc1C
    1.1	2.2

Single records, as listed above. Screens in order: CBX7 inh | CBX7 inh z-score
`Cn1c2ccccc2c2c(C(=O)N3CCN(c4ccccc4F)CC3)cn(C3CCCC3)c(=O)c21` reads 0.78 | -0.22
`Cc1ccc2cc(CCNC(=O)c3cc4ccccc4o3)c(=O)[nH]c2c1C` reads 1 | 0.31
`Cc1c(NC(=O)c2ccccc2F)cccc1-c1nc2ncccc2o1` reads 1.1 | 0.086
`Cc1cc(OCc2cn3cccnc3n2)ccc1Cl` reads 1.1 | 0.84
`Cc1ccc2c(c1)NC(=O)C(CC(=O)Nc1ccc(F)cc1C)O2` (configuration not stated) reads 1.1 | 2.7

(continued)
SMILES	CBX7 inh	CBX7 inh z-score
COCCNC(=O)c1nn2c(C(F)(F)F)c3c(nc2c1Cl)-c1ccccc1CC3	1	0.44
CCN(CC)S(=O)(=O)c1ccc2c(c1)N(CC(=O)NC1CCCCC1)C(=O)CS2	0.95	-0.82
Cc1ccc(-c2nnc(Nc3ccc(OCC(N)=O)cc3)c3ccccc23)cc1S(=O)(=O)NCCO	0.84	-3
COc1cc(OC)c(NC(=O)Cn2cnc3scc(-c4ccccc4)c3c2=O)cc1Cl	0.99	-0.43
C=CCNC(=O)C1CCC(Cn2c(=O)[nH]c3ccsc3c2=O)CC1 (configuration not stated)	1.1	0.79
N#Cc1ccccc1Cn1c(-c2cncs2)nc2ccccc21	1	0.61
Cc1ccc(OCc2nc(-c3ccc(Br)cc3)no2)cc1C	1.4	0.4
COc1ccc(-c2noc(C(c3ccccc3)c3ccccc3)n2)cc1	1.1	0.47
CNC(=O)CC1Sc2ccc(C(F)(F)F)cc2NC1=O (configuration not stated)	1	0.82
Cc1ccc(CCNC(=O)Cn2nc(-c3ccccc3)c3cc(Cl)ccc32)cc1	1	0.48
COc1ccc(C(=O)c2oc3ccccc3c2NC(=O)COc2ccc(C)c(C)c2)cc1	1.1	0.37
O=C(NCCCN1CCCC1=O)c1ccc2c(c1)N(Cc1ccccc1)C(=O)c1ccccc1S2(=O)=O	1	0.058
CC(C)(C)c1ccc(-c2cc(C(=O)NCc3ccc4c(c3)OCO4)c3ccccc3n2)cc1	0.99	-0.086
COc1cc(NC(=O)CSc2nc3nc(C)c(Cc4ccccc4C)c(C)n3n2)cc(OC)c1	0.97	-0.33
CCOC(=O)N1CCC(N2Cc3cccc(C(=O)NCc4ccc(F)cc4)c3C2=O)CC1	0.95	-2
O=C(O)c1cc(C23CC4CC(CC(C4)C2)C3)nc2ccc(Br)cc12	0.77	-2.5
CCOC(=O)c1sc(Nc2cc(Cl)ccc2Cl)nc1-c1ccccc1	1.1&1.2	2.9&1.8
COCCCNC(=O)C1=CCN(S(=O)(=O)c2ccc(OC)cc2)CC1	1.1	2.4
O=C(NC1CCCCC1)C(c1ccc(Cl)cc1)N1CCOCC1 (configuration not stated)	1.1	2.8
O=C(c1cccc(NC2=NC3CS(=O)(=O)CC3S2)c1)N1CCN(c2ccccc2)CC1 (configuration not stated)	0.94	-0.67
c1ccc(OCCOc2ccc(-c3cc(C4CCNCC4)[nH]n3)cc2)cc1	0.93	-0.85
O=C(O)CCS(=O)(=O)Cc1ccc(Cl)cc1	1.2	1.9
CCOC(=O)c1ccc2nc(C)cc(Nc3ccc(N(C)C)cc3)c2c1	0.76	-2.8
Cc1cc(NC(=O)c2cccs2)n(-c2nc3ccccc3[nH]2)n1	1	0.18
COc1ccc(-n2nc(C(=O)N3CCOCC3)c3ccccc3c2=O)c(OC)c1	0.99	-0.36

Continued:
SMILES	CBX7 inh	CBX7 inh z-score
C#CCN1C(=O)C(O)(CC(=O)c2ccc(C(C)C)cc2)c2cc(Br)ccc21 (configuration not stated)	0.64	-10
CCCCc1c2c(nn1-c1ccccc1F)CC(C)(C)CC2=O	1	-0.012
CC(C)CC(=O)Nc1nc2ccc(S(C)(=O)=O)cc2s1	1	0.96
CN(CC(=O)NCCc1ccccc1)S(=O)(=O)c1cccc2cccnc12	0.93	-1.5
CCOC(=O)N1CCN(c2c(NCCCc3ccccc3)c(=O)c2=O)CC1	1	0.72
Cc1ccc(CCNC(=O)C2CCN(Cc3nc(-c4cccc(Br)c4)oc3C)CC2)cc1	0.99	-0.25
CCOC(=O)N1CCC(Nc2c(NC3CCCC(C)C3C)c(=O)c2=O)CC1 (configuration not stated)	1	0.071
CCOc1ccc(-c2nc(SCC(=O)Nc3nccs3)c(-c3ccc(OC)c(OC)c3)[nH]2)cc1	0.74	-4.3
Cc1ccc(CNc2ccc3c(c2)ncn3C)cc1	0.65	-10
COc1ccccc1N1CCN(C(=O)c2cc(-c3ccc(Br)cc3)on2)CC1	1	1.9
COc1ccc(CNc2sc3c(c2C(=O)Nc2cc(OC)ccc2OC)CCCC3)cc1	0.55	-23
CCOC(=O)c1cnc2c(C)c(Cl)ccc2c1Nc1ccc(C)c(C)c1	1.2	4.3
Cc1cc(C)cc(C(=O)N2CC(=O)Nc3ccc(Br)cc3C2c2ccccc2)c1 (configuration not stated)	0.89	-2.7
O=C(CC1Nc2ccccc2NC1=O)Nc1cccc(Cl)c1 (configuration not stated)	0.91	-1.4
CCOc1ccc(N(CC)C(=O)CCNC(=O)Cn2ccc3ccccc3c2=O)cc1	1	0.65
O=C(CCCn1c(=O)[nH]c2ccccc2c1=O)NCC1CCCO1 (configuration not stated)	1.1	0.29
c1csc(-c2nc3cnccn3c2NC2CCCCC2)c1	1.5	5.1
Cc1nc2c(C(=O)N3CCC4(CC3)OCCO4)cnn2c(C)c1Cc1ccccc1	1	-0.13
CCOC(=O)N1CCC(Nc2c(NC3CCCC3)c(=O)c2=O)CC1	1.1	1
N#Cc1c(-c2ccccc2)nc(N2CCCCCC2)[nH]c1=O	1.1	1.9
Cc1nc2ccc(S(=O)(=O)NC(CC(C)C)C(=O)N3CCc4ccccc4C3)cc2s1 (configuration not stated)	0.98	-0.86
O=C(O)CCc1ccc(-c2cccs2)n1-c1cccc(Br)c1	0.75	-4.3
O=C(CSc1ncnc2sc3c(c12)CCC3)Nc1ccccc1F	0.97	-0.036
CN(CC(=O)NCCC1=CCCCC1)S(=O)(=O)c1cccc2cccnc12	0.94	-0.7
CCOC(=O)C1CCN(C(=O)CCc2c(C)nc3cc(-c4cccc(F)c4)nn3c2C)CC1	0.85	-2.5

Three entries already listed, sorted by the value under CBX7 inh z-score, highest first:
Molecule | CBX7 inh z-score
CCOC(=O)N1CCC(Nc2c(NC3CCCC3)c(=O)c2=O)CC1 | 1
CC(C)CC(=O)Nc1nc2ccc(S(C)(=O)=O)cc2s1 | 0.96
O=C(Cc1ccc(-n2c(=O)[nH]c3ccsc3c2=O)cc1)N1CCN(c2ccccc2)CC1 | 0.47

Going on with the list.
SMILES	CBX7 inh	CBX7 inh z-score
COCCCNC(=O)CSc1nc(-c2cccc(OC)c2)[nH]c1-c1ccc(Cl)cc1	1	0.88
Cc1nc2cc(-c3ccccc3)nn2c(C)c1CCC(=O)N1CCN(c2ccccn2)CC1	1	0.28
CCCCCc1ccc(-c2ccc(C(=O)Nc3ccc(C)cc3C)cc2)nc1	1	1.1
CC(C)c1ccc(Nc2c3c(nc4ccc(Cl)cc24)CCC3)cc1	1.1	0.15
Cc1oc(-c2cccc(Cl)c2)nc1CN1CCCC(C(=O)NC2CCCc3ccccc32)C1 (configuration not stated)	0.97	-0.73
CCN(CC)S(=O)(=O)c1ccc2c(c1)N(CC(=O)N1CCN(c3ccc(F)cc3)CC1)C(=O)CO2	1	0.74
CCCCNc1nc(SC(CC)C(=O)NCCCOC)nc2ccccc12 (configuration not stated)	1	1.6
COc1cccc(NC(=O)CCN2CCN(CCO)CC2)c1	1.1	1.5
O=S(=O)(c1ccc(Cl)cc1)c1nc(-c2ccccc2Br)oc1N1CCCCC1	0.62	-13
COCc1cc(=O)n2[nH]c(-c3ccc(Br)cc3)cc2n1	1	0.61
Cc1ccccc1N1C(=O)c2ccccc2C1Nc1cc(F)ccc1F (configuration not stated)	1.1	2.5
O=C(Nc1ccc(Br)cc1)c1cc(C2CC2)on1	1.1	2.9
O=C(Cn1cc(S(=O)(=O)c2ccccc2)c(=O)c2ccccc21)Nc1ccc(Cl)cc1	1	0.16
CCOC(=O)N1CCc2c(sc(NCc3cccs3)c2C(=O)Nc2ccc(OC)cc2OC)C1	0.86	-3.6

Some of the compounds tested; the hit share may differ from the screen's.
